Measles inh: inhibitors of measles virus growth in infected cells. infected Vero cells, GFP fluorescence, 64 h; stronger effect = lower value. z-score (test concentration not listed). 33,000 tested, 0.1% active;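 active = z-score under -3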;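 also: score is relative to mean and SD of the compound wells of a plate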
Numbers without * were called inactive.

Sample of the layout:
SMILES | Measles inh
O=c1[nH]c(O)c(C(c2cccc(OCc3ccccc3F)c2)c2c(O)[nH]c(=O)[nH]c2=O)c(=O)[nH]1 | 0.91
CCc1ccc2c(c1)C(C)=CC(C)(C)N2C(=O)Nc1ccc(OC)cc1 | -0.61

The whole of this part, from the start:
SMILES | Measles inh
O=c1[nH]c(O)c(C(c2cccc(OCc3ccccc3F)c2)c2c(O)[nH]c(=O)[nH]c2=O)c(=O)[nH]1 | 0.91
CCc1ccc2c(c1)C(C)=CC(C)(C)N2C(=O)Nc1ccc(OC)cc1 | -0.61
CC(C)(C)C(=O)CSc1nc2ccsc2c(=O)n1-c1ccc(Br)cc1 | -0.58
CCN(CC)c1cc(Nc2cccc(OC)c2)c([N+](=O)[O-])c2nonc12 | -1.7
Cc1ccc(S(=O)(=O)NC(C)C(=O)N2CCOCCOCCOCC2)cc1 (configuration not stated) | 0.83
O=C(NCC(=O)N1CCCC1)c1cccs1 | -0.73
C=CCn1c(COc2cccc3cccnc23)nnc1SCC(=O)OC | -0.31
Clc1ccc(-n2cc(-c3ccccc3)c3c(N4CCCCCC4)ncnc32)cc1 | -0.82
COc1ccc(Br)cc1C1C(C(=O)Nc2ccc(Cl)cc2)=C(C)Nc2ncnn21 (configuration not stated) | 0.07
Cc1ccc(C)c(NS(=O)(=O)c2c(C)nn(C)c2C)c1 | 0.93
COc1ccc(C2C3C(=O)N(c4ccc(Cl)cc4)C(=O)C3ON2c2ccccc2)cc1 (configuration not stated) | -0.43
CC(=O)Oc1ccc(NC(=O)CCc2ccccc2)c(C(=O)O)c1 | -0.63
Cc1cccc(NC(=O)C2CC(=O)N=C(N)S2)c1 (configuration not stated) | -0.04
Cc1cc2ccccc2n2c(SCC(=O)Nc3ccc(Cl)cc3)nnc12 | -0.85
COC(=O)CSc1nnc(-c2ccncc2)n1-c1ccc(OC)cc1 | -0.78

A section from further up, for reference:
SMILES | Measles inh
O=c1[nH]c(O)c(C(c2cccc(OCc3ccccc3F)c2)c2c(O)[nH]c(=O)[nH]c2=O)c(=O)[nH]1 | 0.91
CCc1ccc2c(c1)C(C)=CC(C)(C)N2C(=O)Nc1ccc(OC)cc1 | -0.61
CC(C)(C)C(=O)CSc1nc2ccsc2c(=O)n1-c1ccc(Br)cc1 | -0.58

Next structures follow:
SMILES | Measles inh
Cc1cc(=O)oc2cc(NC(=O)C(C)N)ccc12 (configuration not stated) | -0.33
COc1ccccc1N=Cc1cc(OC)c(OCc2ccccc2)cc1[N+](=O)[O-] | -0.98
CCC(=O)OCCNc1cc(SCc2ccccc2)c2nonc2c1[N+](=O)[O-] | -1.7
CC1CCCCN1C(=O)c1ccc(Cl)c([N+](=O)[O-])c1 (configuration not stated) | -1.2
COC(=O)c1ccc2c(=O)n(CCc3ccc(S(N)(=O)=O)cc3)c(SCc3cccc([N+](=O)[O-])c3)nc2c1 | -0.02
CCOc1cc(C(=S)N2CCOCC2)ccc1OC(=O)c1ccc(Cl)cc1 | 0.63
Cc1ccc(C)c(NC(=O)CSc2nnnn2-c2ccc(C(=O)O)cc2)c1 | 1.9
Cc1ccc(Cl)cc1N1CCN(C(=O)c2cccn3c(=O)c4cc5ccccc5cc4nc23)CC1 | 2.3
Cc1ccc(S(=O)(=O)Nc2ccc3c(c2)c(C(=O)OC(C)C)c(C)n3S(=O)(=O)c2ccc(C)cc2)cc1 | -0.11
COC(=O)c1ccc(C2CC(=O)NC(C)=C2C(=O)OCc2ccccc2)cc1 (configuration not stated) | 0.41
COc1ccc(NC(=O)c2ccc(Cc3ccc(C)cc3)o2)cc1 | 0.91
CCCS(=O)(=O)N1CCCC(C(=O)NCCN2CCCCCC2)C1 (configuration not stated) | 1.9
COC(=O)c1c(NC(=O)COc2cccc(C)c2C)sc(C)c1C | 0.63
CCS(=O)(=O)N1CCN(S(C)(=O)=O)CC1 | -0.84
Cc1ccc(-n2nc3ccc(NC(=O)c4cc([N+](=O)[O-])ccc4Cl)cc3n2)cc1C | -1.3

Overlap with the part before: 4 entries, followed by the next part.
SMILES | Measles inh
CCCS(=O)(=O)N1CCCC(C(=O)NCCN2CCCCCC2)C1 (configuration not stated) | 1.9
COC(=O)c1c(NC(=O)COc2cccc(C)c2C)sc(C)c1C | 0.63
CCS(=O)(=O)N1CCN(S(C)(=O)=O)CC1 | -0.84
Cc1ccc(-n2nc3ccc(NC(=O)c4cc([N+](=O)[O-])ccc4Cl)cc3n2)cc1C | -1.3
O=C(CSc1nnc2sc3ccccc3n12)Nc1ccc(Cl)cc1 | -1.9
CCOC(=O)C1CCN(CCC(=O)Nc2ccccc2OC)CC1 | 0.94
CCOC(=O)C1=C(C)NC2=C(C(=O)CCC2)C1c1ccc(C)cc1 (configuration not stated) | -0.56
OC(CNCC1CCCO1)Cn1c2ccccc2c2ccccc21 (configuration not stated) | 0.73
CC(C)C(NC(=O)C1CCCCC1)C(=O)NCc1ccco1 (configuration not stated) | -0.63
CC(=O)N1CN(Cc2ccccc2)Cc2c1sc1c2CCCC1 | -0.27
CC(C)c1ccc(S(=O)(=O)N2CCN(Cc3cccc(F)c3)CC2)cc1 | 1.7
COc1ccccc1Nc1cc(C(=O)NCCCN2CCCCCC2)c2ccccc2n1 | 0.59
COc1cc2c(cc1NC(=O)CCC1CCCCC1)oc1ccccc12 | -0.54
COC(=O)C(C(C)=O)C1c2ccccc2Sc2ccccc21 (configuration not stated) | 0.28
O=C(CCCN1C(=O)c2cccc([N+](=O)[O-])c2C1=O)Nc1cccc2ccccc12 | -0.46
COc1ccccc1C1SCCN1S(=O)(=O)c1ccc(Br)cc1 (configuration not stated) | -0.19
Cc1ccc(-n2nc3c(c2NC(=O)c2cccc(Br)c2)CSC3)cc1 | -0.18
CCN(CC)CCn1c2ccccc2c2nc3ccccc3nc21 | -1.6
CCCC1(NC(=O)Cc2ccccc2)CCCC1 | -0.52
O=C(Nc1ccccn1)C(O)c1ccccc1 (configuration not stated) | -0.49
COc1ccc(C)cc1Nc1n[nH]c(C)c1[N+](=O)[O-] | -0.82
CN(C)CCNC(=O)C1(O)c2cc(Br)ccc2NC(=O)N1c1ccccc1 (configuration not stated) | -0.78
CC1=CCC(C(=O)O)C(C(=O)Nc2nc3ccc(S(C)(=O)=O)cc3s2)C1 (configuration not stated) | -0.19
CCOC(=O)C(CC)Sc1nnc(-c2c[nH]c3ccccc23)n1C (configuration not stated) | -0.61
N#Cc1cccc(N2CCOC(=O)N2)c1 | 0.61
CCN(c1cccc(C)c1)S(=O)(=O)c1cnc[nH]1 | 0.2
NC(=O)CSC1=Nc2ccccc2C2=NC(CCC(=O)NCc3ccccc3)C(=O)N12 (configuration not stated) | -0.39
Cc1noc(C)c1S(=O)(=O)N1CCC(C(=O)N(CCc2ccccc2)Cc2ccccc2)CC1 | 1.1
Cc1ccc(C(=O)NCc2n[nH]c(=S)n2-c2ccccc2)cc1[N+](=O)[O-] | 0.16
Cc1cc(Cl)ccc1OC1C(=O)N(c2cccc([N+](=O)[O-])c2)C1c1ccccc1Cl (configuration not stated) | -0.08
O=C(c1ccco1)N1CCN(S(=O)(=O)c2cccc3nonc23)CC1 | 0.62
CCOc1ccc(C(=O)Nc2c3c(nn2-c2ccc(OC)cc2)CSC3)cc1 | -0.05
CCOC(=O)c1c(C)oc2cc(Br)c(OCc3ccccc3Cl)cc12 | 0
C=CCn1c(=N)c(C(=O)NC(C)c2ccccc2)cc2c(=O)n3cccc(C)c3nc21 (configuration not stated) | 0.97
O=c1c2sc3ccccc3c2[nH]c(=S)n1Cc1ccccn1 | -0.27
CCCCN(c1ccc(C(=O)OC)cc1)S(=O)(=O)c1ccccc1 | -1.4
COc1ccc(Br)cc1CN1CCN(S(=O)(=O)c2ccc(C)cc2)CC1 | -0.99
CCOC(=O)C1=C(C)NC2=C(C(=O)CC(c3cccs3)C2)C1c1ccc(C)o1 (configuration not stated) | -0.1
COc1ccccc1CNC(=O)c1sc2ncn(Cc3ccccc3Cl)c(=O)c2c1C | 0.33
CC(=O)C1C(c2cn(-c3ccccc3)nc2-c2cccs2)NC(=O)NC1(O)C(F)(F)F (configuration not stated) | -0.11
O=C(Nc1c2c(nn1-c1ccc(F)cc1)CS(=O)(=O)C2)C1CCCC1 | -0.28
Cc1ccc2cc3cc(C(=O)NCCCN4CCc5ccccc5C4)oc3nc2c1 | -0.65
O=C(Cn1c(=O)n(-c2ccccc2)c(=O)c2c3c(sc21)CCCC3)Nc1ccc2c(c1)OCCO2 | -0.02
O=c1oc2ccc(Br)cc2cc1-c1nc2c(s1)CCc1ccccc1-2 | -0.21
CC1(C)CC(=O)C=C(Nc2ccc(Br)cc2C#N)C1 | -1.1
CCOC(=O)c1sc(NC(=O)c2ccc(OC)cc2)nc1-c1ccccc1 | -0.26
CCCCSc1c(C)c2cc3c(cc2[nH]c1=O)OCO3 | 0.09
Cc1cccc(C(=O)Nc2ccc(Cl)c(-c3nc4ccccc4[nH]3)c2)c1 | -0.42
COc1ccc(NC(=O)Cn2c(=O)n(CC(=O)NC3CCCC3)c(=O)c3ccccc32)cc1 | -0.26
COCCNC(=O)CN1N=C(c2ccc(OC)cc2)CCC1=O | -0.9
COc1ccc(OC)c(NC(=O)c2cc(S(=O)(=O)N3CCCc4ccccc43)ccc2F)c1 | -0.62
O=C(C1CCC(CNS(=O)(=O)c2ccc(Cl)cc2)CC1)N1CCN(Cc2ccccc2)CC1 (configuration not stated) | -0.49
Cc1ccc2cc3cc(C(=O)Nc4ccccc4F)oc3nc2c1 | -0.44
CCCOC(=O)C1=C(C)NC2=C(C(=O)CC(c3cccs3)C2)C1c1cc(OC)c(OC)c(OC)c1 (configuration not stated) | -0.58
Cc1nn(-c2ccccc2)c2nc(C(F)(F)F)cc(C(F)(F)F)c12 | -0.88
c1ccc2[nH]c(-c3c[nH]c4ccccc34)nc2c1 | -0.74
Cc1ccc(-c2noc(CCC(=O)Nc3cccc(Cl)c3)n2)cc1 | 1
O=C(O)C1C2C=CC(O2)C1C(=O)NCCCn1ccnc1 (configuration not stated) | -0.79
CCN(CC)C(=O)Cn1ccc2ccccc2c1=O | -0.51
CC(C)Cn1cc(I)c(=O)[nH]c1=O | -0.2
Cc1ccc(C(C)C)c(OCc2ccc(C(=O)O)o2)c1 | -2.8
O=C(O)c1ccc(-c2ccc(Cl)cc2)o1 | -0.57
O=c1oc2ccc(NS(=O)(=O)c3cccs3)cc2s1 | -0.04
COc1ccc(C=Cc2ccc3ccccc3[n+]2[O-])c(OC)c1 | 1.4
Going on with the list:
SMILES | Measles inh
Cc1csc(NC(=O)c2ccc(Br)cc2)n1 | -0.89
Cc1ccc(-c2cc(C(=O)Nc3ccc(Cl)c([N+](=O)[O-])c3)c3ccccc3n2)s1 | -1.4
CCOC(=O)CCc1c(C)c(C#N)c2nc3ccccc3n2c1N1CCN(C)CC1 | -0.99
O=C(NCc1ccccc1Cl)C1C2C=CC3(CN(Cc4cccs4)C(=O)C13)O2 (configuration not stated) | -1.9
Cc1cc(NS(=O)(=O)c2ccc(NC(=O)COc3ccccc3)cc2)no1 | 1.2
CC(C)(C)NS(=O)(=O)c1ccc2oc3ccc(S(=O)(=O)NC(C)(C)C)cc3c2c1 | -0.13
Nc1ncc(N=Cc2cc([N+](=O)[O-])ccc2O)cn1 | -0.13
COc1ccc(-c2noc(COc3ccc(C(C)C)cc3Br)n2)cc1OC | 2.3
COc1ccc(NC(=O)N(C2CCCCC2)C2CCN(C(C)C)CC2)c(OC)c1 | -0.47
CCOC(=O)c1c(C)oc2c(Cl)cc(NS(=O)(=O)c3ccccc3C)cc12 | -0.44
O=C(Nc1cccc(F)c1)c1cc(S(=O)(=O)N2CCOCC2)ccc1F | 0.07
CC(C)(C)c1ccc2c(c1)N(CC(=O)N1CCN(Cc3ccccc3)CC1)C(=O)CO2 | 0.39
Cn1c(SCC(=O)N2CCCC2)nc2c([nH]c3ccccc32)c1=O | -0.02
CC(=O)c1cccc(N2C(=O)c3cccnc3C2=O)c1 | -1.6
Cc1ccc2cc3cc(C(=O)NCc4ccc5c(c4)OCO5)sc3nc2c1 | -0.78

Shown with values ahead of the structure: part of the list above.
| Measles inh | molecule |
| --- | --- |
| -0.13 | Nc1ncc(N=Cc2cc([N+](=O)[O-])ccc2O)cn1 |
| -0.02 | Cn1c(SCC(=O)N2CCCC2)nc2c([nH]c3ccccc32)c1=O |
| -0.47 | COc1ccc(NC(=O)N(C2CCCCC2)C2CCN(C(C)C)CC2)c(OC)c1 |

Continuation:
SMILES | Measles inh
CCN(CC)S(=O)(=O)c1ccc2oc(C(=O)NCCN3CCOCC3)c(C)c2c1 | 0.05
CCCCCc1nnc(NC(=O)CCCC)s1 | -0.27
CCn1c(CCNC(=O)c2ccc(Cl)cc2)nc2ccccc21 | 0.25
Cc1c(NC(=O)C2CN(S(=O)(=O)c3ccccc3)CCN2S(=O)(=O)c2ccccc2)c(=O)n(-c2ccccc2)n1C (configuration not stated) | 0
COc1ccc2nc3oc(C(=O)N4CCN(Cc5ccccc5)CC4)cc3cc2c1 | 0.22
O=C(NCc1cccnc1)c1cc2nc(-c3ccc(Cl)cc3)cc(C(F)(F)F)n2n1 | -0.12
COc1ccc(-c2cc(C(=O)N3CCN(C)CC3)no2)cc1 | 0.08
O=C1C2Sc3[nH]c(=O)sc3C(c3ccc([N+](=O)[O-])cc3)C2C(=O)N1c1ccc(Br)cc1 (configuration not stated) | -0.61
CNS(=O)(=O)c1cc(-c2nnc(Nc3cc(C)ccc3C)c3ccccc23)ccc1C | 0.22
Cc1cc(N2CCCCC2)nc2ccc(NC(=O)CCC(=O)N3CCC(Cc4ccccc4)CC3)cc12 | 0.18
Brc1ccc(C2=Nn3cnnc3SC2)cc1 | -1.3
CC(=O)N1c2ccc(S(=O)(=O)CCC(=O)Nc3ccc(C)c(C)c3)cc2CC1C (configuration not stated) | 0.51
COc1ccc(N2CCN(CCCNC(=O)Nc3ccc(F)cc3)CC2)cc1 | 2.4
CC(C)(C)c1ccc(C(=O)Nc2ccc(S(=O)(=O)N3CCCC3)cc2)cc1 | -0.49
CCOCCn1cnc2sc(C(=O)N(C)Cc3ccccc3)c(C)c2c1=O | -0.57
CCCCCn1c(=O)[nH]c2cc(C(=O)NCCN3C(C)CCCC3C)ccc2c1=O (configuration not stated) | 1.1
COc1ccc2nc(NC(=O)c3ccc(N)cc3)sc2c1 | -1

Not all compounds are listed; rates above refer to the full screens.
